HPGD block: qHTS Assay for Inhibitors of HPGD (15-Hydroxyprostaglandin Dehydrogenase); Potency, µM, without a hit: top-dose activity change, negative = inhibition, most hits filed as inhibitors; hit rate 4.3% among 150,000; 15-hydroxyprostaglandin dehydrogenase [NAD(+)] (Homo sapiens), P15428; purified HPGD, NADH fluorescence kinetic, PGE2 substrate; active = well fitted inhibition curve with a large enough effect (not every such curve was filed as active); inconclusive = small, poorly fitted or top-dose-only effect, or another doubt; inactive = no such curve, though single readings can be large or run the other way;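 note: top concentration of the series not given in the record; plate controls included wells without enzyme; inactives centre near -10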
Target sequence (P15428 whole entry, looked up): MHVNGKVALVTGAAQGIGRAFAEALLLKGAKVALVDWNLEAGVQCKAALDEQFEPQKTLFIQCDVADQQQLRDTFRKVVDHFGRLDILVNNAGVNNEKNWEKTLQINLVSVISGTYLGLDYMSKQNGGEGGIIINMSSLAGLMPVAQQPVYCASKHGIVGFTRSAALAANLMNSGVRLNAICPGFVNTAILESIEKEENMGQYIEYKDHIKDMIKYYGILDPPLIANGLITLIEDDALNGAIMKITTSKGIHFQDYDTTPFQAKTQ
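NADH formation kinetics: reaction with 30 uM PGE2 and 1 mM NAD+ (final), 20 nM enzyme, Tris-HCl pH 8 with Tween 20, after 15 min compound preincubation at room temperature. Fluorescence change, last versus first of five reads.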
Active calls of the source: *; u = inconclusive; & = joins results of further samples. % is set by controls: 0 for no effect and ±100 for the full control effect; potency is the fitted concentration of half-maximal effect.

SMILES	HPGD block
C[C@H]1[C@H](NC(=O)/C(=N/OC(C)(C)C(=O)O)c2csc(N)n2)C(=O)N1S(=O)(=O)O (stereo in doubt)	0%
CCCn1c(C2CC(=O)N(c3cc(OC)ccc3OC)C2)nc2ccccc21 (stereo not given)	0%
CC1CCCCN1S(=O)(=O)c1ccc(C(=O)Nc2nnc(-c3ccccc3Cl)o2)cc1 (stereo not given)	-8%
O=C(C1COc2ccccc2O1)N1CCCC1 (stereo not given)	13µM*
Cc1ccc(-c2csc(NC(=O)/C=C/c3cccs3)n2)cc1C	-20%
COc1ccccc1NC(=O)CSc1nnc(CC(=O)Nc2ccccc2)n1C	-8%
Cc1cccc2cc3c(NC(=O)CC(C)C)nn(C)c3nc12	u
O/C(=C\Sc1nnc(Cc2ccccc2)o1)c1ccc(F)cc1	-14%
CCOc1cc(C)c(-c2onc(C(F)(F)F)c2-c2csc(C)n2)c(O)c1	-12%
O=C(Cn1c(N2CCN(c3ccccc3)CC2)nc2ccccc21)c1ccccc1	-12%
CCOC(=O)Cn1c(-c2nonc2NC(=O)c2ccccc2F)nc2ccccc21	u
O=C(Nc1cc(NC(=O)c2ccccc2)c(C(=O)O)cc1C(=O)O)c1ccccc1	-24%
CCOC(=O)C(NC(=O)c1ccccc1OCC)(Nc1ncccn1)C(F)(F)F (stereo not given)	-19%
CCCc1nc2c(o1)CC(CC(C)SCC)CC2=O (stereo not given)	-17%
CCC(C)/C(C)=N/NC(=O)c1cn(-c2ccccc2)nc1-c1ccccc1 (stereo not given)	0%
COc1ccc(/C=N/n2c(-c3ccco3)nc3ccccc3c2=O)cc1	-15%
CC(C)NC(=O)C1CCN(C(=O)N(C)C)CC1	0%
NCCCC[C@@H]1NC(=O)c2cc([N+](=O)[O-])cc(I)c2SC[C@@H](C(N)=O)NC(=O)[C@H](Cc2ccc(O)cc2)NC1=O	-15%
CCOc1c(C#N)c(C#N)c2nc(C)cc(C)n12	-2%
CC(C)CC(=O)NC(=S)N1CCN(c2ccc([N+](=O)[O-])cc2Cl)CC1	-9%
O=C(CN1C(=O)CC(c2ccccc2)=Nc2ccccc21)NCc1ccccc1	-7%
CCOC(=O)c1sc(NC(=O)COC(=O)CNC(=O)c2ccco2)c(C(=O)OCC)c1C	-26%
COc1ccc(NC(=O)CC(=O)Nc2ccc(OC)cc2OC)c(OC)c1	2%
CSCCC(NC(N)=O)C(=O)NCc1ccc(Cl)cc1 (stereo not given)	-12%
Cc1ccc(NC(=O)c2ccc(CNc3c(N4CCOCC4)c(=O)c3=O)cc2)cc1	-24%

By substructure, the entries above containing a Cl atom (3)
SMILES	HPGD block
CC1CCCCN1S(=O)(=O)c1ccc(C(=O)Nc2nnc(-c3ccccc3Cl)o2)cc1 (stereo not given)	-8%
CC(C)CC(=O)NC(=S)N1CCN(c2ccc([N+](=O)[O-])cc2Cl)CC1	-9%
CSCCC(NC(N)=O)C(=O)NCc1ccc(Cl)cc1 (stereo not given)	-12%

(more compounds)
SMILES	HPGD block
Cc1cc(C(C)(C)C)ccc1OCCn1ccnc1	-21%
O=C(COC(=O)[C@@H]1CCCN1C(=O)c1cccs1)NCCc1ccccc1	-5%
CCCOc1cccc(C(=O)NC(=S)Nc2cccc(C(F)(F)F)c2)c1	-18%
CCS(=O)(=O)n1nc(-c2ccc(OC)cc2)nc1SC	-5%
CCn1c(SCC(=O)N2CCCc3ccccc32)nnc1-c1c[nH]c2ccccc12	-1%
C=C(Cl)COc1ccc2c(CCCC)cc(=O)oc2c1	-30%
Cc1cc(C)c(C#N)c(SCc2nc3ccccc3[nH]2)n1	-21%
O=C(NC(CO)Cc1ccccc1)c1ccccc1 (stereo not given)	-4%
Cc1cc2cc(C)c3nnc(SCC(=O)NCc4ccc5c(c4)OCO5)n3c2cc1C	1%
O=C(O)CC1CCCC(c2ccccc2)C1=O (stereo not given)	-12%
CCOC(=O)NN1C(=O)c2ccccc2NC1c1ccc(N(C)C)cc1 (stereo not given)	-11%
CC(=O)N1N=C(c2ccc(Br)cc2)OC1(C)CC(=O)Nc1ccccc1 (stereo not given)	-28%
O=C1[C@H]2[C@@H](C(=O)N1c1cc(Cl)cc(Cl)c1)[C@]1(C(=O)Nc3ccccc31)N1CCC[C@@H]21	-12%
Cc1cc(Oc2cnn(C(C)(C)C)c(=O)c2Cl)cc(C(C)C)c1	-21%
Cn1cccc1/C=N/n1c(-c2ccc(C(C)(C)C)cc2)n[nH]c1=S	11µM*
O=C(C1CCN(c2nnc(-n3cccc3)s2)CC1)N1CCN(c2cccc(C(F)(F)F)c2)CC1	-8%
N#Cc1c(N2CCOCC2)nc(-c2ccco2)c2c1CCCC2	u
COc1ccc(OC)c(-c2cc(C(=O)NCc3cccs3)no2)c1	u
COc1ccccc1CN(Cc1cc2cc(C)ccc2[nH]c1=O)Cc1nnnn1CC1CCCO1 (stereo not given)	-14%
N#Cc1ccccc1NC(=O)CC1CCCCC1	-24%
Cc1ccccc1Nc1nc(N)nc(COC(=O)c2cccc(S(=O)(=O)NCc3ccccc3)c2)n1	28µM*
COC(=O)c1ccc(NC(=O)C2CCN(S(C)(=O)=O)CC2)cc1	-12%
Cc1cnc(-c2nnc(N(C)C(=O)c3ccccn3)s2)cn1	-6%
CCOC(=O)c1nn(-c2ccccc2C)c2nc(-c3ccc(C)cc3)c(C#N)c(=O)n12	u
CC1(C)Cc2noc(N)c2C(C)(C)N1OC(=O)c1ccco1	-13%

Ordered by the number under HPGD block (descending): 3 from the list above.
SMILES	HPGD block
Cc1cc2cc(C)c3nnc(SCC(=O)NCc4ccc5c(c4)OCO5)n3c2cc1C	1%
CCCOc1cccc(C(=O)NC(=S)Nc2cccc(C(F)(F)F)c2)c1	-18%
Cc1cc(Oc2cnn(C(C)(C)C)c(=O)c2Cl)cc(C(C)C)c1	-21%

The listing continues:
SMILES	HPGD block
CC1SC(c2ccc(Cl)cc2)NC1=O (stereo not given)	-17%
CCOC(=O)C1=C(C)NC2=C(C(=O)CC(C)(C)C2)C1c1ccc2c(c1)CCCN2C (stereo not given)	u
O=C(c1csc2c1CCCC2)n1cccn1	-9%
CCN(CC)c1ccc(N)cc1	-16%
CCN(C(=O)CSc1nnc(Cn2nnc3ccccc32)o1)c1nc(C)cs1	-20%
O=C1NC(=O)C(CC(=O)N(Cc2cccs2)C2(C(=O)NC3CCCC3)CCCCC2)N1 (stereo not given)	4%
O=C(Nc1ccc(NC(=O)c2ccc(S(=O)(=O)c3ccccc3)cc2)cc1)c1ccccc1	u
COc1ccc(OC)c(NC(=S)NCc2cccs2)c1	u
CN(O)/C=C1\C(=O)Nc2ccccc21	-15%
CCc1ccc(NC(=O)CO/N=C(\C)c2cc3ccccc3o2)cc1	-3%
O=C1C(Cc2ccc(Br)cc2)SC(=Nc2ccccc2)N1c1ccccc1 (stereo not given)	-12%
COc1cccc(OC)c1C(=O)Nc1ccc(NC(=O)c2ccco2)cc1	-3%
CC1CC(C)CN(CCCNC(=O)c2csc3c2CCCC3)C1 (stereo not given)	3%
CCCCNCc1cc(OC)c(OCC(N)=O)cc1Br	-17%
Cc1ccc(C2CC(c3cccc(C)c3)n3ncnc3N2)cc1 (stereo not given)	-11%
Cn1c(=O)c2c(ncn2CC(=O)OCC(=O)Nc2cc(Cl)ccc2Cl)n(C)c1=O	-19%
CC(Sc1nnc2ccccn12)C(=O)Nc1ccc(Cl)cn1 (stereo not given)	-11%
CCN1CCN(CC(=O)Nc2ccc3c(c2)OCO3)C(=O)C1=O	-9%
CCNc1ccc(S(=O)(=O)N(C)C)cc1NCC(=O)Nc1c(F)cccc1F	-18%
CN(CC(=O)Nc1ccc(N2CCOCC2)cc1)CC(=O)Nc1ccccc1[N+](=O)[O-]	-3%
CNc1nc(-c2ccc(N(C)C)cc2)nc2ccccc12	u
c1ccc2c(c1)ncc1cccn12	u
Cc1ccc(OCCC(=O)Nc2ccc(F)c(Cl)c2)cc1	-6%
CC(C)c1ccc(NC(=O)C(c2ccccc2)N2CCOCC2)cc1 (stereo not given)	-11%
O=C(Nc1cccc(Cl)c1)ON=C1c2ccccc2-c2ccccc21	-22%
SMILES	HPGD block
COc1ccccc1-c1nnc(NC(=O)C2=COCCO2)o1	-28%
Cc1cc(C2=NNC(=NC3CC3)SC2)c(C)n1-c1ccccc1F	u
O=C(CSc1nnc(-c2ccncc2)o1)Nc1ccccc1Cl	-8%
COc1cc(-c2cc(=O)c3ccccc3o2)ccc1O	35µM*
Oc1ccccc1-c1cc(-c2ccco2)[nH]n1	u
C=C(C)Cn1c(CCCNC(=O)C(C)(C)C)nc2ccccc21	-10%
CCCCSc1cc(C)nc2ncnn12	-20%
CCOC(=O)N1CCN(S(=O)(=O)N(C)C)CC1	-11%
OC(COCc1ccccc1)CN1CCN(c2ccccc2)CC1 (stereo not given)	-19%
CCc1ccc(C(C)NC(=O)c2ccc(F)cc2)cc1 (stereo not given)	-23%
O=C(NCc1ccc2c(c1)OCO2)C1CC(c2cccc(Br)c2)=NO1 (stereo not given)	-15%
COc1ccccc1NS(=O)(=O)c1cccc(C(=O)N/N=C/c2c(C)nn(-c3ccccc3)c2N2CCCC2)c1	-28%
CCOC(=O)COc1ccc(S(=O)(=O)N2CCN(c3ccccc3F)CC2)cc1	-8%
CCOc1ccc(C(=O)NCCCN(CC)CC)cc1	-9%
CC(=O)NC1C(=O)Nc2c(C)cc(C)cc21 (stereo not given)	0%
CCC(=O)Nc1ccccc1-c1nnn(CC(=O)N2c3ccccc3CC2C)n1 (stereo not given)	-7%
Cc1nc2ccc(S(=O)(=O)NCC(=O)N3CCOCC3)cc2s1	-2%
CC(C)=CCC1=C(OCC(=O)O)C(=O)c2ccccc2C1=O	-7%
COc1ccccc1N1CCN(c2nc(N)c(C#N)c(CC#N)c2C#N)CC1	-10%
CCOc1ccc2[nH]c(=O)c(C(c3nnnn3CC3CCCO3)N3CCc4ccccc4C3)cc2c1 (stereo not given)	u
CCOC(=O)c1ccc(NC(=O)C23CCC(C)(C(=O)O2)C3(C)C)cc1 (stereo not given)	-14%
CCOc1ccc(-c2nc(-c3ccccc3C)no2)cc1	-10%
O=C(COc1cccc(C(F)(F)F)c1)NCCCN1CCCC1=O	-2%
CCCCn1c(/N=C/c2ccc3c(c2)OCO3)nc2ccccc21	-7%
C=CCSc1nc2c(c(C3CC=CCC3)c1C#N)CCC2 (stereo not given)	-11%

Molecules from the list above that contain a furan ring, fused or not:
SMILES	HPGD block
COc1ccc(/C=N/n2c(-c3ccco3)nc3ccccc3c2=O)cc1	-15%
CCOC(=O)c1sc(NC(=O)COC(=O)CNC(=O)c2ccco2)c(C(=O)OCC)c1C	-26%
N#Cc1c(N2CCOCC2)nc(-c2ccco2)c2c1CCCC2	u
CC1(C)Cc2noc(N)c2C(C)(C)N1OC(=O)c1ccco1	-13%
CCc1ccc(NC(=O)CO/N=C(\C)c2cc3ccccc3o2)cc1	-3%
COc1cccc(OC)c1C(=O)Nc1ccc(NC(=O)c2ccco2)cc1	-3%
Oc1ccccc1-c1cc(-c2ccco2)[nH]n1	u

Part of the list above, comma-delimited.
canonical_smiles,HPGD block
N#Cc1ccccc1NC(=O)CC1CCCCC1,-24%
O=C(Nc1cccc(Cl)c1)ON=C1c2ccccc2-c2ccccc21,-22%

(list continues)
SMILES	HPGD block
c1ccc(-c2nnc3sc(CN4CCc5ccccc54)cn23)cc1	11µM*
Cc1c(Cl)cccc1-c1ccc(/C=N/n2cnnc2)o1	-20%
Cc1ccc(S(=O)(=O)N2c3ccccc3-c3c(ssc3=S)C2(C)C)cc1	-15%
Cc1cc(NC(=O)c2ccccc2)ncc1NC(=O)c1ccco1	u
CC(=O)Nc1cc(C(=O)N2CCN(C)CC2)ccc1Sc1ccc(C)cc1	-11%
Cc1ccc(S(=O)(=O)n2ccc(-c3ccc(OCc4c(F)cccc4Cl)cc3)n2)cc1	-6%
CSc1nnc(-c2sc3cc(C(F)(F)F)cnc3c2-c2cccnc2)n1C	-29%
Cc1ccc(-c2noc(/C=C/c3ccccc3)n2)cc1	-14%
O=C(Nc1nnc(CSCc2ccccc2F)s1)c1cccc([N+](=O)[O-])c1	u
Cc1cc(NC(=O)c2c(F)c(F)c(F)c(F)c2F)no1	-6%
CCCCNC(=O)COC(=O)c1cc(C)nc2ccccc12	-11%
O=Nc1c(O)[nH]c2c(F)cccc12	-12%
NC(=O)c1cc(-c2ccccc2)sc1NC(=O)Cc1ccc(S(=O)(=O)N2CCOCC2)s1	-26%
Cn1c(SCc2nc(-c3ccccc3)no2)nnc1-c1cccs1	4%
CC/C=C\C/C=C\C/C=C\CCCCCCCC(=O)O	-3%&-30%
CCCCCc1c(C)nc(Nc2ccc(F)cc2)[nH]c1=O	-8%
O=C(c1ccc([N+](=O)[O-])cc1)N1CCN(C(=O)c2cccs2)CC1	-13%
COc1cccc(NC(=S)N(CCN(C)C)C(C)c2ccco2)c1 (stereo not given)	-4%
CN(C)c1ccc(CNC(=O)C2CCN(S(=O)(=O)c3ccc4c(c3)CCC(=O)N4)CC2)cc1	-15%
CC1CN(C(=O)C(C)Sc2nc3ccccc3s2)CC(C)O1 (stereo not given)	28µM*
O=C(N/N=C/c1ccco1)C1COc2ccccc2O1 (stereo not given)	-15%
CC(C)CC(COCc1ccc(Cl)cc1)N1CCN(C(=O)c2cccc(C(F)(F)F)c2)CCC1=O (stereo not given)	-10%
O=C(N/N=C\c1ccccc1O)c1ccccc1O	u
Cc1ccc(C2=NN=C(NC(=O)CSc3nnc4c5ccccc5n(C)c4n3)SC2)cc1	u

High-throughput results (PubChem BioAssay)

Not all compounds are listed. The share of hits here may be higher or lower than overall.
